# Calb FLC: C. albicans growth modulation with fluconazole; growth inhibition, % (concentration not given with the values); AID 1979; 300,000 compounds, 0.57% hits; C. albicans CaCi-2 (fluconazole-resistant clinical isolate) + fluconazole, Alamar Blue growth, 48 h;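 active = most replicates above 75%; inconclusive = exactly half above 75%; inactive = most below 75%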;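 note: all wells also contain fluconazole at 8 µg/ml as a sub-toxic cotreatment; 0% = median of DMSO wells and 100% = median of geldanamycin control wells; wells of about 8 µL received 7.5 nL stock; the first replicate is given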
# Beta apoptosis: blocks beta cell apoptosis; INS-1E cytokine-induced death, ATP luminescence, 48 h; percent of positive-control rescue, neutral wells zero; protection from apoptosis, % (test concentration not listed); 300,000 compounds, 0.8% hits;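 active = all replicates at 75% or more, or half of them and the mean; inconclusive = half reach 75% but not the mean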;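 note: 0% = cytokine-treated negative control wells and 100% = positive control rescue; higher means more ATP so stronger rescue from cytokine killing; wells of about 40 µL received 100 nL stock; the first replicate is given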
# RanGTP-Imp inh: inhibitors of RanGTP-importin-beta interaction, primary screen, biochemical, FRET, CFP-Ran, YFP-importin-beta, homogeneous; cell-free CFP-Ran/YFP-importin-beta FRET ratio; inhibition, % (concentration not given with the values); 300,000 compounds, 1.1% hits; AID 2216;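 active = most replicates above 15%; inconclusive = exactly half above 15%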;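 note: 0% = DMSO wells and 100% = Ran loaded with GDP instead of GTP; wells of about 40 µL received 100 nL stock; the first replicate is given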
# ALR H2O2 inh: inhibitors of human sulfhydryl oxidase ALR | purified ALR, DTT oxidation, H2O2 HRP-luminol luminescence | inhibition, % (concentration not given with the values) | 290,000 compounds, 3.8% hits;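 active = mean and each replicate at 75% or more; inconclusive = only one of the two met; inactive = neither met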;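 note: stock transfer was 7.5 nL into about 7.5 µL; 0% = neutral wells and 100% = wells with inactivated enzyme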
# Target sequence (P55789 whole entry, looked up): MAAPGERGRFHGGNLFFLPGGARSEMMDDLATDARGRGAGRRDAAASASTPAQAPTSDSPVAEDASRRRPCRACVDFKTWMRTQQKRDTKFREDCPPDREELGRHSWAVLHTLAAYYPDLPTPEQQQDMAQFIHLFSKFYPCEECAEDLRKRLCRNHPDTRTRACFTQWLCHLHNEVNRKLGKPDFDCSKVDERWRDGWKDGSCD
# T cruzi inh: T. cruzi replication inhibition; T. cruzi beta-gal in NIH3T3, luminescence, 90 h; inhibition, % (no concentration beside the values); 300,000 compounds, 1.4% hits; AID 1885;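 active = mean inhibition across valid replicates above about 55%, limit read from the data; inconclusive = mean below that limit but half or more replicates reach it; inactive = mean below it, under half of replicates reach it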;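 note: signal also drops with host cell toxicity which is not excluded here; 0% = plate median of DMSO wells and 100% = zero luminescence signal; higher percent means less beta-gal luminescence so fewer parasites; stock transfer was 50 nL into about 50 µL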
# rRNA inh HTS: inhibits bacterial ribosomal RNA function over humanized ribosomes. E. coli WT GFP vs humanized-ribosome RFP mutants, fluorescence, 24 h; stronger effect = lower value; DMSO median 0, no signal -100. GFP signal change (wild-type ribosome), % (no concentration beside the values). 350,000 compounds, 1.6% hits. AID 720706;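 active = significant combined selectivity score with lowered wild-type GFP, culture density cut under 30%, mutant RFP and density less affected; inactive = any of these conditions unmet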; note: one replicate is shown; some compounds called inactive have numbers as strong as hits
# AF4-AF9 inh: inhibitors of human MLL-AF4/AF9 interaction; AID 651704; 350,000 compounds, 0.47% hits; AlphaScreen, biotin-AF4 peptide binding to FLAG-AF9; P42568; inhibition, % at 10 µM;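 active = every replicate reaching a set inhibition limit, whatever the replicate mean, cut at about 25% in these data; inconclusive = mean inhibition reaches that limit but some replicates miss it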;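 note: 0% = plate neutral control median and 100% = total signal loss; the record names both 10 and 1 µM as test concentration; the first replicate is given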
# Target sequence (P42568 whole entry, looked up): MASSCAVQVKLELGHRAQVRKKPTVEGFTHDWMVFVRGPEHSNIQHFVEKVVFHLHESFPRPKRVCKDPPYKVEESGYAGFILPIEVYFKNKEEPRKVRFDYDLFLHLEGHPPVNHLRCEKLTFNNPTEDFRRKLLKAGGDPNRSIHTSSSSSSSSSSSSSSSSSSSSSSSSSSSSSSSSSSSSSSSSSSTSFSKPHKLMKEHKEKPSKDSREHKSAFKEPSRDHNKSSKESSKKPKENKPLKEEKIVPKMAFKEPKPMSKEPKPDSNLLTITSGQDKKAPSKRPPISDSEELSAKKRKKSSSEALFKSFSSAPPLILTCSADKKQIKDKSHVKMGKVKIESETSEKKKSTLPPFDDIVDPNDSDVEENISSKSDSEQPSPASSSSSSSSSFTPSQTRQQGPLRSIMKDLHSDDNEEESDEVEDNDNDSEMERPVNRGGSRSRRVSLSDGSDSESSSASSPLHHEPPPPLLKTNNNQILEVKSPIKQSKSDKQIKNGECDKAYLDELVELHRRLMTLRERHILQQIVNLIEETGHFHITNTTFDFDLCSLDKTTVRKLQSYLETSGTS
# FGF22 binding: binders of recombinant human FGF22 by thermal shift. Q9HCT0. SYPRO orange fluorescence; percent of sucrose octasulfate shift, DMSO zero. calls only at 9.99 µM. 340,000 compounds, 1.5% hits;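 active = melting point raised past a set limit in the mean and every replicate; inconclusive = no clear call; three in four hits are not shown here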
# Target sequence (Q9HCT0 whole entry, looked up): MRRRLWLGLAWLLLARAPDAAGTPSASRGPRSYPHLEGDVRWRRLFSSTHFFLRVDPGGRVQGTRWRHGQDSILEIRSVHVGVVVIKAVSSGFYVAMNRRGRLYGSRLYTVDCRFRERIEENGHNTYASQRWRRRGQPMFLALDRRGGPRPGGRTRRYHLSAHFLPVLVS
# rRNA inh HTS OD600: also measured in rRNA inh HTS; calls as there; OD600 change, %; measured here: OD600 growth;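 optical density of the mix in the first replicate; 0 = DMSO median and -100 = no signal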
# rRNA inh HTS RFP: further read-out of rRNA inh HTS, marked with its call; RFP signal change, %; measured here: RFP humanized mutant strains;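 first replicate; 0 = DMSO median and -100 = no signal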
# The depositor's hits bear a star; i = inactive; ? = inconclusive; · = no result given.
# The opening 3 entries, ahead of the listing:
SMILES,Calb FLC,Beta apoptosis,RanGTP-Imp inh,ALR H2O2 inh,T cruzi inh,rRNA inh HTS,rRNA inh HTS OD600,rRNA inh HTS RFP,AF4-AF9 inh,FGF22 binding
COc1cc(N/C(N)=N/c2nc(C)cc(C)n2)c(OC)cc1Cl,-32,2,-1.6,-16,-27,·,·,·,·,·
CCCCCC(=O)Nc1sc(C)c(C)c1C#N,11,1,2.5,1,12,·,·,·,·,·
CCOc1ccc(N2C(=O)Nc3ccccc3C2(O)C(=O)NCc2ccco2)cc1 (centres undefined),-9,0,0.9,-9,-8,2,3,0.0,5.0,i

# The whole of this part, repeating the preview:
SMILES,Calb FLC,Beta apoptosis,RanGTP-Imp inh,ALR H2O2 inh,T cruzi inh,rRNA inh HTS,rRNA inh HTS OD600,rRNA inh HTS RFP,AF4-AF9 inh,FGF22 binding
COc1cc(N/C(N)=N/c2nc(C)cc(C)n2)c(OC)cc1Cl,-32,2,-1.6,-16,-27,·,·,·,·,·
CCCCCC(=O)Nc1sc(C)c(C)c1C#N,11,1,2.5,1,12,·,·,·,·,·
CCOc1ccc(N2C(=O)Nc3ccccc3C2(O)C(=O)NCc2ccco2)cc1 (centres undefined),-9,0,0.9,-9,-8,2,3,0.0,5.0,i
C=CCOc1c(Br)cc(CNc2ccc(NC(=O)C(C)C)cc2)cc1OCC,33,1,-0.3,51,1,·,·,·,1.7,i
O=C1N(CN2CCC3(CC2)OCCO3)c2ccccc2C12OCCCO2,-24,-4,2.2,-13,-19,·,·,·,·,·
C=CCNC(=O)CSc1ncc2c(n1)-c1c(csc1SC)CC2,0,·,0.4,·,-8,9,4,7.0,-0.2,i
COc1cc(OC)c(/C=N/NC(N)=S)cc1Br,32,-14,6.5,1,19,·,·,·,-0.3,i
CCOc1ccccc1Oc1coc2cc(OCC(=O)O)ccc2c1=O,-3,-6,-1.2,-1,3,11,12,-0.2,-0.6,i
COC(=O)[C@H](Cc1ccccc1)NS(=O)(=O)N[C@@H](Cc1ccccc1)C(=O)OC,·,1,·,1,·,-14,-5,9.9,3.1,i
Cc1ccc(NC(=O)c2cc(S(=O)(=O)N3CCCC3)c[nH]2)c(C)c1,3,1,-1.1,-7,-17,3,0,1.1,0.1,i
CCC1=NN(C(=O)c2ccccc2O)C(O)(c2ccccc2)C1 (centres undefined),107*,87*,-1.6,10,-16,5,7,1.2,3.4,i
Cc1noc(C)c1COc1cccc(C(=O)Nc2ccc(C#N)cc2)c1,-6,7,6.6,-9,17,·,·,·,·,·
Cc1cc(C)cc(N2C(=O)CCN(Cc3ccccc3)C2=O)c1,6,-3,-5.6,3,·,3,0,-3.0,-1.9,i
CCCCN(C(=O)c1ccc2c(c1)OCCO2)c1c(N)n(CC(C)C)c(=O)[nH]c1=O,-6,-5,3.4,·,-15,15,14,-0.6,0.0,i
Nc1nc(Br)c2c(F)cccc2c1-c1ccc(F)cc1,42,-10,-1.5,?,-3,-16,-12,-0.4,-19,i
O=C(O)c1ccc(Cl)c(S(=O)(=O)N2CCCC2)c1,-10,3,0.2,-7,5,9,4,-1.0,6.5,i
O=C1CS(=O)(=O)N(Cc2cccc(F)c2)c2ccc(Br)cc21,·,-1,·,-8,·,-7,-5,-0.8,1.6,i
COc1cccc2sc(Nc3nc(-c4ccccn4)cs3)nc12,-38,111*,2.5,-11,75*,·,·,·,·,·
O=S(=O)(Nc1ccc(OC(F)F)cc1)c1ccc(-c2ccon2)s1,32,6,5.9,-8,4,-15,-19,5.4,-12,i
COc1ccc(S(=O)(=O)NC2CC(=O)N(c3ccc(C)c(C)c3)C2)cc1 (centres undefined),1,5,?,-1,4,-2,-15,-0.6,-0.3,i
COC(=O)c1ccc(Cn2nnc3c(=O)[nH]c(C4CCCN(S(=O)(=O)c5ccccc5)C4)nc32)cc1 (centres undefined),22,-2,-3.3,5,-3,4,-7,-3.7,-11,i
CC1CC(OC(=O)CN2CCCCC2)CC(C)(C)C1 (centres undefined),3,1,?,1,-3,·,·,·,·,·
C/C(N)=C(/C#N)C(=O)COC(=O)c1ccc(NC(N)=O)cc1,1,0,0.9,6,-4,0,-8,4.5,-4.5,i
Cc1cccc(NC(=O)c2ccc(OCC3CCCO3)cc2)c1C (centres undefined),7,-7,4.1,·,-36,·,·,·,·,·
CN(Cc1ccccc1NS(=O)(=O)c1ccc(Cl)cc1)C1CCCCC1,-19,-12,-2.1,·,-5,-29*,-15*,-0.5*,-1.7,i
O=C(NC1CCCCC1)C(c1ccc(Cl)cc1)N1CCC2(CC1)OCCO2 (centres undefined),16,·,-0.8,-3,-3,·,·,·,·,·
O=C(CCCC(=O)N(CC(=O)NC1CCCCC1)Cc1ccco1)Nc1ccccn1,-9,-2,0.1,-5,-1,·,·,·,·,·
Cc1ccc2nc(/N=C(\N)NC(=O)NC3CCCCC3)nc(C)c2c1,1,-1,2.2,4,44,-22,-25,-2.0,5.5,·
O=C(CSc1nnnn1Cc1ccccc1)Nc1ccc2c(c1)OCCO2,-1,-3,-0.4,22,-4,·,·,·,·,·
CC(=O)/C(=N\Nc1ccc(Cl)cc1)Sc1nnc(-c2ccccc2)n1-c1ccccc1,-11,-3,-0.1,·,15,-55,-70,-23,2.2,·
NS(=O)(=O)c1ccc(N/N=C/c2ccccn2)c([N+](=O)[O-])c1,1,2,0.7,1,-3,-7,4,-5.1,0.9,i
CCOc1ccc(NC(=O)CN(C)C(=O)c2ccccc2OCc2cccc(C)c2)cc1OCC,·,-5,·,-1,·,-2,-12,11,8.4,i
CCOC(=O)C1=C(CC)OC(N)=C(C#N)C1c1cc(OC)ccc1OC (centres undefined),-5,-1,-2.5,8,3,·,·,·,·,·
COc1cccc(/C=N/NC(=O)c2ccc(OCc3cccc(Br)c3)cc2)c1,38,3,2.3,-13,-5,·,·,·,·,·
CCC(=O)Nc1ccc(N2CCC(C)CC2)cc1,5,-5,-3.8,41,2,·,·,·,·,·
CCOC(=O)C1(Cc2ccccc2)CCN(CC2CC=CCC2)CC1 (centres undefined),16,4,-2.3,2,12,12,-1,-2.3,-0.7,i
Cc1nc(C(=O)Nc2ccc(Cl)cc2Cl)nn1-c1cc(OC(C)C)c(Cl)cc1Cl,1,1,1.2,-2,32,·,·,·,·,·
O=C1c2cc(Cl)ccc2OC2(CCNCC2)C12CC(c1ccccc1)=NO2 (centres undefined),-11,-5,2.7,·,4,-15,-18,4.6,10,i
Cc1ccc(Cn2c(=S)[nH]c3ccc(N4CCOCC4)cc3c2=O)o1,?,-25,?,-12,-9,·,·,·,·,·
COc1ccc(OCc2nnc(SCC(=O)N3c4ccccc4Sc4ccc(Cl)cc43)o2)cc1,-2,6,-2.5,44,23,·,·,·,·,·

# Ordered by value in AF4-AF9 inh (low to high): seven from the list above.
SMILES	RanGTP-Imp inh	ALR H2O2 inh	rRNA inh HTS	rRNA inh HTS OD600	rRNA inh HTS RFP	AF4-AF9 inh	FGF22 binding
C/C(N)=C(/C#N)C(=O)COC(=O)c1ccc(NC(N)=O)cc1	0.9	6	0	-8	4.5	-4.5	i
CCOC(=O)C1(Cc2ccccc2)CCN(CC2CC=CCC2)CC1 (centres undefined)	-2.3	2	12	-1	-2.3	-0.7	i
NS(=O)(=O)c1ccc(N/N=C/c2ccccn2)c([N+](=O)[O-])c1	0.7	1	-7	4	-5.1	0.9	i
CC(=O)/C(=N\Nc1ccc(Cl)cc1)Sc1nnc(-c2ccccc2)n1-c1ccccc1	-0.1	·	-55	-70	-23	2.2	·
Cc1ccc2nc(/N=C(\N)NC(=O)NC3CCCCC3)nc(C)c2c1	2.2	4	-22	-25	-2.0	5.5	·
CCOc1ccc(NC(=O)CN(C)C(=O)c2ccccc2OCc2cccc(C)c2)cc1OCC	·	-1	-2	-12	11	8.4	i
O=C1c2cc(Cl)ccc2OC2(CCNCC2)C12CC(c1ccccc1)=NO2 (centres undefined)	2.7	·	-15	-18	4.6	10	i

# Other compounds follow:
SMILES,Calb FLC,Beta apoptosis,RanGTP-Imp inh,ALR H2O2 inh,T cruzi inh,rRNA inh HTS,rRNA inh HTS OD600,rRNA inh HTS RFP,AF4-AF9 inh,FGF22 binding
CCC1CCCCN1CC(=O)c1c(C)[nH]c2ccccc12 (centres undefined),7,-2,1.5,-6,3,·,·,·,·,·
O=C(Nc1ccncc1)C1CCN(S(=O)(=O)c2ccccc2)CC1,6,8,3.2,2,-10,0,1,-0.9,-1.8,i
CC(C)c1ccc(N2CC(C)(C)C2=O)cc1,-5,1,5.1,-1,-18,17,6,0.6,0.0,·
O=C(NCc1ccc(F)cc1)C1CCCN1S(=O)(=O)c1ccccc1C(F)(F)F (centres undefined),·,-3,·,-1,·,1,8,0.3,-6.3,i
COc1ccccc1-c1cc(C(=O)N2CCCc3ccccc32)no1,10,-3,?,-4,9,-35,-34,-8.3,2.6,i
Cc1ccc2c(c1)[C@H]1[C@H](CO2)[C@H](c2ccccc2)[C@]2(C)C(=O)N(Cc3ccc(Cl)cc3)CC(=O)N12,·,0,·,8,·,4,5,-1.1,-1.3,i
CCC(Oc1cc(Cl)ccc1Cl)C(=O)N1CCCN(C)CC1 (centres undefined),15,-4,-3.0,0,8,9,7,2.7,0.0,i
O=C(O)c1cc(S(=O)(=O)Nc2ccccc2Cc2ccccc2)ccc1Cl,7,-1,1.2,·,2,-6,4,-1.1,-1.4,i
COc1ccc(C(=O)Nc2ccc3ccccc3n2)cc1OC,8,-3,3.9,-2,-2,-18,-13,-2.3,0.6,i
Cc1ccccc1N1CCN(C(=O)NCc2cccc(Cl)c2)CC1,9,-4,5.8,-4,-4,-2,-47,0.4,0.7,i
CN(CC(=O)Nc1ccc(S(=O)(=O)N2CCCC2)cc1)Cc1c(F)cccc1Cl,3,11,-0.4,-2,16,-29,-41,-2.2,-0.2,i
COc1ccc(NC(=O)CN(c2cccc(F)c2)S(C)(=O)=O)cc1OC,18,0,-1.9,-5,-12,·,·,·,·,·
Cc1cccc(N2CCC(NCc3c(C(=O)N4CCCCC4)nc4c(C)cccn34)CC2)c1,37,5,-3.2,-7,32,-37,-48,31,4.4,i
Cc1ccc(N2CC(C(=O)Nc3nnc(SCCC4OCCO4)s3)CC2=O)cc1 (centres undefined),-1,-3,1.4,-4,3,7,2,7.4,-9.0,i
Cn1nnnc1N=N/C(=N/Nc1ccccc1)c1ccccc1,-9,126*,0.3,57,27,-3,5,-5.3,5.6,i
O=C(O)c1ccc(SCc2ccccc2)nc1,-1,1,0.5,-4,-24,-13,-23,-1.5,0.1,i

# Part of the list above in a different format.
Compound | Calb FLC | Beta apoptosis | RanGTP-Imp inh | ALR H2O2 inh | T cruzi inh | rRNA inh HTS | rRNA inh HTS OD600 | rRNA inh HTS RFP | AF4-AF9 inh | FGF22 binding
CCC(Oc1cc(Cl)ccc1Cl)C(=O)N1CCCN(C)CC1 (centres undefined) | 15 | -4 | -3.0 | 0 | 8 | 9 | 7 | 2.7 | 0.0 | i
O=C(O)c1ccc(Cl)c(S(=O)(=O)N2CCCC2)c1 | -10 | 3 | 0.2 | -7 | 5 | 9 | 4 | -1.0 | 6.5 | i

# Not all compounds are listed; the hit share may differ from the screen's.
